PLK1 PBD inh = Plk1 (human) PBD binding inhibition. P53350. Plk1 PBD phosphopeptide binding, fluorescence polarization. inhibition, %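 (tested at about 20 µM)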. 97,000 tested, 0.13% active. AID 693; in the data active = inhibition above about 34%, passing the limit was not always enough
ERa SRC1 inh = blocks coactivator binding to human estrogen receptor alpha. inhibition, % at 25.6 µM. 86,000 tested, 1.7% active. AID 629. TR-FRET ER-alpha LBD / SRC-1 peptide, estradiol-bound; in the data active = inhibition above about 50%;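 note: 0% = receptor plus peptide control and 100% = peptide only without receptor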
HIV Rev-RRE inh = HIV Rev-RRE protein-RNA interaction inhibition. inhibition, % at 8 µM. 97,000 tested, 0.79% active. Rev peptide-RRE RNA binding, FRET. P05866;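 active = inhibition above the screen-wide mean plus 3 SD, cut at about 35% in these data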;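 note: 0% = median DMSO wells and 100% = median Neomycin B control wells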
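Assay system: labelled RRE RNA duplex and labelled Rev peptide / Medium: HEPES pH 7.5 salt buffer with EDTA / Reagent: labelled Rev peptide / Schedule: 5 + 15 min at 25 °C / Signal: FRET, excitation 480 nm, emission 540 nm donor and 671 nm acceptor / Benchmarks: DMSO and neomycin B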
ERa SRC1 pot = ER-alpha (human) coactivator binding potentiation | TR-FRET ERalpha-LBD/SRC-Cy5 coactivator binding, 2 h; 100 = basal binding, no effect | coactivator binding (% of control), % at 25.6 µM | 86,000 tested, 1.3% active; in the data active = activity above about 200%;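 note: binding measured in presence of low estradiol as agonist stimulus; 0% = peptide alone without receptor and 100% = receptor with peptide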
ERb coact inh = blocks coactivator binding to human estrogen receptor beta; Q92731; TR-FRET ER-beta LBD / SRC1-Cy5 peptide binding; receptor agonist-loaded with 1 µM estradiol; inhibition, % at 25.6 µM; 86,000 tested, 1.3% active;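 active = compounds whose percent inhibition of the receptor-coactivator binding signal exceeds about 50% in the single-dose screen, limit read from the data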;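 note: 0% = receptor plus peptide wells without compound and 100% = peptide-only wells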
PLK1 inh = blocks human PLK1 kinase activity; P53350; recombinant PLK1 kinase, TR-FRET peptide phosphorylation; inhibition, % at 10 µM; 97,000 tested, 0.53% active;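 active = inhibition of 50% or more in the single-concentration screen; inactive = inhibition below 50%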;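 note: 0% = DMSO max control and 100% = H-89 dihydrochloride min control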
CD11b adhes enh = CD11b/CD18-fibrinogen binding enhancement | 93,000 tested, 0.07% active | AID 1499 | K562 CD11b/CD18 adhesion to fibrinogen, ATPlite luminescence | activation, % at 10 µM;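 active = 10 µM primary screen giving 50% or more activity, confirmed by 40% or more on retest at that dose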; note: strong numbers were not always called active
Target sequence (P05107 whole entry, looked up, other chains not shown): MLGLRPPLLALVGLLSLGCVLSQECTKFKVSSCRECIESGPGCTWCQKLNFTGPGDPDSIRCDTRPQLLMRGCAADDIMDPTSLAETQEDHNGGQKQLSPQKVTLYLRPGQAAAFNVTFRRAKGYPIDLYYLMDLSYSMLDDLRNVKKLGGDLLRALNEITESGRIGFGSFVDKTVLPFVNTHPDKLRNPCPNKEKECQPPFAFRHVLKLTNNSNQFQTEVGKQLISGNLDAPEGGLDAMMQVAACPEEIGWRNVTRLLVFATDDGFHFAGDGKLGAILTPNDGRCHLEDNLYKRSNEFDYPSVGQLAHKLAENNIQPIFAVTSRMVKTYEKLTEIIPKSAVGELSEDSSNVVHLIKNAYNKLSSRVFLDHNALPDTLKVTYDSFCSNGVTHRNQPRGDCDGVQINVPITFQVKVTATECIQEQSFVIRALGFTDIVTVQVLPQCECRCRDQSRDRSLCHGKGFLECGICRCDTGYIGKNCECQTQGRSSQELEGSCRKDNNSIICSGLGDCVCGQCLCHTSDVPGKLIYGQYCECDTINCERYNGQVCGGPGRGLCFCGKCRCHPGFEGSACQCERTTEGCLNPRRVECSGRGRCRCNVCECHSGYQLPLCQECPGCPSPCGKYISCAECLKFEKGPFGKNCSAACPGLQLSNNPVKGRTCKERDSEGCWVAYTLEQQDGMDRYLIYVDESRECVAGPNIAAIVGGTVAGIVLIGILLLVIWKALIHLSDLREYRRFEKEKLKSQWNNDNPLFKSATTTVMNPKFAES
Mac1 fbg inh = inhibitors of human CD11b/CD18 binding to fibrinogen. P05107+P11215. K562 CD11b/CD18 adhesion to fibrinogen, ATPlite luminescence; Mn2+ added to activate the integrin. inhibition, % at 10 µM. 93,000 tested, 0.54% active;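 active = primary inhibition of 50% or more at 10 µM, then 40% or more on retest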; note: some results filed as inactive read as strong as hits
* hit, by the source's call; · = no result given; [ ] = another dose, or the depositor's remark.

SMILES | PLK1 PBD inh | ERa SRC1 inh | HIV Rev-RRE inh | ERa SRC1 pot | ERb coact inh | PLK1 inh | CD11b adhes enh | Mac1 fbg inh
N/C(=N\OC(=O)c1ccco1)c1cccc(Br)c1 | 22 | -13 | 4 | 115 | -6 | -16 | -4 | -2
CC(C)Cn1c2ccccc2c2cc(C(=O)O)ccc21 | -22 | -8 | 7 | 95 | 2 | 6 | -3 | 2
Cc1nc2ccccc2cc1OCc1ccccc1 | -19 | · | 7 | · | · | -6 | · | ·
COc1ccc(S(=O)(=O)N2CCC(C(=O)NCCC3=CCCCC3)CC2)cc1OC | -7 | -2 | 3 | 122 | 3 | 6 | -1 | -12
O=C(Nc1cccc(-c2nc3ccccc3[nH]2)c1)c1ccco1 | 6 | -4 | -1 | 105 | 5 | -5 | 3 | -1
COc1ccccc1NC(=O)CN1CCC(n2c(C)nc3cc(F)ccc32)CC1 | 1 | -4 | 1 | 127[fluorescence artefact?] | -1 | -2 | 2 | 20
Cc1cccc(-c2cc(C(=O)Nc3ccc4c(c3)OCCO4)c3ccccc3n2)c1 | -13 | · | 10 | · | · | -5 | · | ·
CC(C)c1nc(SCC(=O)N2c3ccccc3CC2C)c2ccccc2n1 (stereo not drawn) | 20 | · | 8 | · | · | 6 | 2 | 2
CCn1c(Cc2ccccc2)nnc1SCC(=O)Nc1ccccc1 | -5 | 2 | -1 | 122 | -10 | -6 | -4 | 8
C=CCn1c(CCNC(=O)c2ccccc2F)nnc1SCc1nc2ccccc2c(=O)[nH]1 | -8 | 18 | 0 | 75 | 18[fluorescence artefact?] | -10 | 0 | -15
COc1ccc(CC(=O)c2cc(OC)c(OC)cc2CC(=O)O)cc1OC | -4 | -6 | 4 | 117 | 6[fluorescence artefact?] | 1 | 1 | -17
CCc1nnc(NC(=O)CSc2nc(C3CCCCC3)nc3ccccc23)s1 | -27 | · | 3 | · | · | -1 | · | ·
CN(C)CCCNc1cc(Cl)c(S(=O)(=O)N2CCCCC2)cc1C(=O)O | 16 | -4 | 5 | 117[fluorescence artefact?] | -1 | -13 | 5 | 14
Cn1c(SCC(=O)c2ccc3c(c2)Cc2ccccc2-3)nnc1-c1ccccc1 | -27 | · | 0 | · | · | -32 | 14 | 4
N#Cc1nc(Cc2cccc3ccccc23)oc1N1CCC(C(N)=O)CC1 | -12 | -3 | 3 | 22[fluorescence artefact?] | 4 | 4 | -2 | -4
COc1ccc(C(C#N)Nc2ccccc2)cc1 (stereo not drawn) | 12 | -5 | 10 | 102 | -11 | -6 | 6 | -17
Cc1nn(-c2ccccc2)c2[nH]c(=O)c(CNCCN3CCOCC3)cc12 | -22 | 0 | 3 | 108 | 4[fluorescence artefact?] | -7 | -2 | -12
COc1cc2c(cc1OC)CN(C(=O)CC1CC3CCC1C3)CC2 (stereo not drawn) | -9 | · | -1 | · | · | -7 | 0 | -11
c1ccc2c(c1)CCCN2Cc1nnnn1C1CCCC1 | -13 | -5 | 3 | 107 | -16 | 1 | -2 | -17
Cc1ccc(/C=C2/NC(=O)N(c3ccccc3)C2=O)o1 | -8 | · | 12 | · | · | -2 | · | ·
O=C(NC1CCCCC1)C(c1cccs1)N(C(=O)c1ccco1)c1ccc2c(c1)OCCO2 (stereo not drawn) | -17 | 0 | 3 | 101[fluorescence artefact?] | -5[fluorescence artefact?] | -13 | · | ·
COc1ccc(OCC(=O)Nc2cccc(OC)c2)cc1 | -24 | -13 | 3 | 125 | 4[fluorescence artefact?] | -1 | -4 | 6
Cc1ccccc1-c1nnc(-c2ccc(Cl)cc2)o1 | -10 | -4 | 11 | 117 | 7 | -34 | 5 | -21
S=c1nn[nH]n1C12CC3CC(CC(C3)C1)C2 | 4 | -3 | 2 | 86 | -21 | -7 | -2 | -15
Nc1ncnc2c1cnn2-c1ccccc1 | 5 | -13 | 1 | 96 | -17[fluorescence artefact?] | -9 | -2 | -5
Later entries
SMILES | PLK1 PBD inh | ERa SRC1 inh | HIV Rev-RRE inh | ERa SRC1 pot | ERb coact inh | PLK1 inh | CD11b adhes enh | Mac1 fbg inh
Cc1nn(C)c(C(=O)Nc2ccn(Cc3ccccc3F)n2)c1[N+](=O)[O-] | -7 | · | 0 | · | · | 1 | -2 | 10
O=C(Nc1ccc(Cl)cn1)C1CCCN1S(=O)(=O)c1ccccc1 (stereo not drawn) | 3 | -12 | 4 | 109 | -9 | -2 | -7 | 1
COCCn1c(=NC(=O)CSCC(=O)NC2CCCCC2)sc2cc(OC)ccc21 | -10 | 3[fluorescence artefact?] | 12 | 103 | 0[fluorescence artefact?] | -13 | -4 | -20
COc1ccc(C2NC(c3ccc(OC)c(OC)c3OC)C(C)C(=O)C2C)c(OC)c1OC (stereo not drawn) | 1 | -13 | 2 | 136 | -7 | -10 | · | ·
CCCCn1ccc(=O)c2c(C(F)(F)F)nccc21 | 0 | 30 | 7 | 95 | 2 | -6 | -3 | -4
Cc1c(C(=O)Nc2ccc3oc(-c4cccnc4)nc3c2)oc2ccccc12 | 12 | 45[fluorescence artefact?] | 3 | 127 | 30[fluorescence artefact?] | -14 | · | ·
COC(=O)c1ccc(N2CCC(C)CC2)c(N)c1 | 15 | -2 | -9 | 83 | 5 | -9 | 0 | -11
C=C(C)COc1ccc(-c2nc(N)ncc2Oc2ccccc2OC)c(O)c1 | -33 | 11[fluorescence artefact?] | 14 | 114 | 23[fluorescence artefact?] | -11 | 1 | 5

Some of the compounds tested, so the mix of outcomes need not match the whole.
